Sa ugtP lethal – compounds lethal to S. aureus RN4220 ugtP deletion mutant; growth inhibition, % (concentration not given with the values); 330,000 compounds, 0.54% hits; AID 1259309; OD600 growth, 16 h; some inactives read as strong as hits;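 active = z-score under -3 and OD600 up to 0.15 on both plates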;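 also: plate controls were untreated wells for no effect and antibiotic for full effect; wells of about 80 µL received 100 nL stock; the first replicate is given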
RN4220 kill – kills Staphylococcus aureus RN4220; S. aureus RN4220 growth, OD600, 16 h; inhibition, % (test concentration not listed); 330,000 compounds, 0.33% hits;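 active = z-score of -3 or lower and OD600 up to 0.18 on both plates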;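 also: plate controls were untreated cells for no effect and reference antibiotic for full effect; stock transfer was 100 nL into about 80 µL; one replicate is shown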
Bead autofluor – counter-screen for toxin protease inhibitors: compound fluorescence | compound autofluorescence counterscreen, microsphere flow cytometry; active compounds read high | fluorescence intensity (test concentration not listed) | 360,000 compounds, 3.1% hits | AID 624483;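 active = at least 3 SD above the mean of all compounds, about 16000 in these data; inconclusive = too few beads counted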;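 also: 100 nL of 1 mM stock went into each well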
BJeLR lethal – BJeLR cell viability loss | BJeLR (HRASV12) viability, CellTiter-Glo ATP luminescence, 48 h; reference of the scale not given here | AID 1554 | 300,000 compounds, 0.17% hits | inhibition, % (test concentration not listed);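 active = replicate mean above 50%; inconclusive = above 50% but judged a plate artefact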;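 also: 50 nL library stock added to about 25 µL; numbers are from one replicate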
Mtb hypoxia rep – inhibitors of hypoxia-regulated fluorescent reporter in Mycobacterium tuberculosis; M. tuberculosis hypoxia-regulated fluorescent reporter, fluorescence; fluorescence inhibition, % (concentration not given with the values); 300,000 compounds, 0.1% hits; AID 1159583;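 active = 35 to 45% if threefold the growth effect, above 45% if 1.5-fold the growth effect; inactive = the rest, general growth blockers included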;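 also: wells of about 50 µL received 100 nL stock; 0% = vehicle wells and 100% = reference inhibitor wells; whole bacteria with a GFP reporter of the hypoxia response; strong numbers were not always called active; many hits fall short of the cut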
PrP 5UTR inh – inhibition of PrP 5' UTR reporter expression; cell-based PrP 5' UTR mRNA reporter, plate reader; inhibition, % (test concentration not listed); 340,000 compounds, 0.35% hits; AID 488862;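 active = every replicate at 50% or more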;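 also: 0 = median of the neutral control wells; tested in H4 reporter cells; numbers are from one replicate; inactives centre near -14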
Mtb hypoxia rep growth – recorded beside Mtb hypoxia rep, whose call it bears; growth inhibition, %; measured here: M. tuberculosis growth (absorbance);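 0% = vehicle and 100% = reference antibiotic; read after six days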
Active calls of the source: *; ? = inconclusive; / = no result given. Not a hit list. About 4% of those tested had a hit in this group.

Every second line gives: Sa ugtP lethal, RN4220 kill, Bead autofluor, BJeLR lethal, Mtb hypoxia rep, Mtb hypoxia rep growth, PrP 5UTR inh
> O=C(Cn1nc(C(=O)O)c2ccccc2c1=O)Nc1ccc(F)cc1F
→ 1, 2.6, 5474, -5, 0, 7, -17
> CCOC(=O)N1CCN(c2c(N3CCc4ccccc4C3)c(=O)c2=O)CC1
→ 1, 0.2, 5263, /, 11, 9, -9
> Cc1cc(NC(=O)C(C)SCC(=O)Nc2nc3c(F)cc(F)cc3s2)no1 (configuration not stated)
→ -5, 4.8, ?, /, 1, 7, -27
> COc1ccccc1NC(=O)/C=C/c1ccc2c(c1)OCO2
→ 9, 7.2, 3555, 10, 5, -7, -97
> CCOC(=O)CNC(=O)CSc1nc2c(C)cccc2cc1CC
→ 6, 4.1, 4250, 5, -6, 3, -21
> CC1CCN(C(=O)CN2C(=O)NC3(CCC(C)CC3)C2=O)CC1 (configuration not stated)
→ -5, -0.9, 3524, /, -10, -1, -14
> O=C(NCc1ccc2c(c1)OCO2)C1CCCN1S(=O)(=O)c1ccc(Cl)cc1 (configuration not stated)
→ 2, 1.3, 4401, 2, 13, 3, 0
> COC(=O)c1ccc(OCCCCN2CC(C)OC(C)C2)cc1 (configuration not stated)
→ 5, 13, 4395, -5, -6, -1, -8
> Cc1ccc([N+](=O)[O-])cc1NC(=O)C[n+]1ccccc1
→ -13, -0.8, 3238, 3, 4, 5, -9
> N#Cc1c(-c2ccccc2)cc(C2CC2)nc1N
→ 0, 1.9, 7239, -12, 0, -5, 5
> NC(=O)c1ccc(Br)c(S(=O)(=O)N2CCCCC2)c1
→ 1, 2.3, 8468, 3, 8, 8, -19
> CCOC(=O)C(CCCCCCP(=O)(c1ccccc1)c1ccccc1)NC(C)=O (configuration not stated)
→ 10, 4.2, 3773, 2, 11, 6, -14
> Nc1nc(SCC(=O)N2CCCC2)[nH]c(=O)c1-c1ccccc1
→ -5, 2.6, 4535, 14, 0, 3, -2
> Cc1ccc(OCC(=O)NCc2ccccc2)c([N+](=O)[O-])n1
→ 2, 7.6, 9846, 16, 17, 7, -11
> CCN1C(=O)[C@H]2[C@@H](c3ccc(-c4ccc5c(c4)OCO5)cc3)N3CCC[C@@]3(C(=O)OC)[C@H]2C1=O
→ /, /, 3674, -7, /, /, -20
> CC(C)Nc1nc(Oc2cccc(Cl)c2Cl)cc(C(F)(F)F)n1
→ -8, -14, 9957, 10, 1, 6, -18
> Cc1ccc(-n2nc3c(c2NC(=O)c2ccc(S(=O)(=O)N4CCOCC4)cc2)CSC3)c(C)c1
→ 8, 19, 11803, /, 15, 1, -1
> CCN(C(=O)Cc1c(C(=O)O)n(CC)c2ccccc12)c1cccc(C(F)(F)F)c1
→ -5, 18, 3522, 6, 4, -9, -7
> COc1cccc(NC(=O)CN(C)C(=O)CNC(=O)c2ccc(C)s2)c1
→ 12, 2.6, ?, /, -3, 5, -17
> C=CCN(c1nc(C)cc(OC)n1)S(=O)(=O)c1ccc(C)cc1
→ -2, 2.8, 3097, -5, 3, 1, -8
> COc1ccc(C(=O)NCCc2nnc3ccc(SCC(=O)NCc4ccc(F)cc4)nn23)cc1
→ 12, 3.3, 4313, 0, -4, -9, -16
> CCN1C(=S)N[C@@H](CCc2ccccc2)C(C(=O)OC)=C1C
→ /, /, 3775, -7, /, /, -18
> CCC1(c2ccccc2)NC(=O)N(CC(=O)NCc2ccc(OC)cc2)C1=O (configuration not stated)
→ 0, 2.6, 6691, 4, 5, -6, -7
> COc1ccc2c3c1OC1CC(O)C=C[C@@]31CCN(C)C2 (some centres not stated)
→ -5, 1.2, /, /, 2, 16, /
> Cc1ccc(C(=O)n2nc(C#N)c(C#N)c2N)cc1
→ 4, 2.1, 5727, 4, -12, -10, -11
> Cc1ccc(NC(=O)c2ccc(N3CCCC3=O)cc2)cc1S(=O)(=O)N1CCCCC1
→ 0, 3.9, 6162, /, -5, -5, -9
> NS(=O)(=O)c1ccc(CCNC(=O)CSc2nc3ccsc3c(=O)n2CC(=O)O)cc1
→ 0, 3.0, 2540, -17, 5, 1, -9
> O=C(NCCCN=C1NS(=O)(=O)c2ccccc21)c1ccco1
→ 6, 2.0, 10774, -16, 10, -1, -23
> COC(=O)C(CC(=O)c1cccc(OC)c1)c1ccc(F)cc1 (configuration not stated)
→ 4, 5.3, 4212, -6, 10, 1, -4
> CCOC(=O)C1(CCOc2ccccc2)CCN(Cc2ccc(CO)o2)CC1
→ 10, -0.2, 2176, -13, 3, -1, -22

Only Bead autofluor (four entries from above):
Compound | Bead autofluor
CCN(C(=O)Cc1c(C(=O)O)n(CC)c2ccccc12)c1cccc(C(F)(F)F)c1 | 3522
COc1cccc(NC(=O)CN(C)C(=O)CNC(=O)c2ccc(C)s2)c1 | ?
C=CCN(c1nc(C)cc(OC)n1)S(=O)(=O)c1ccc(C)cc1 | 3097
COc1ccc(C(=O)NCCc2nnc3ccc(SCC(=O)NCc4ccc(F)cc4)nn23)cc1 | 4313

Quoted at random: three records from the list
Every second line gives: Sa ugtP lethal, RN4220 kill, Bead autofluor, BJeLR lethal, Mtb hypoxia rep, Mtb hypoxia rep growth, PrP 5UTR inh
> CCOC(=O)C(CCCCCCP(=O)(c1ccccc1)c1ccccc1)NC(C)=O (configuration not stated)
→ 10, 4.2, 3773, 2, 11, 6, -14
> CC(C)Nc1nc(Oc2cccc(Cl)c2Cl)cc(C(F)(F)F)n1
→ -8, -14, 9957, 10, 1, 6, -18
> Cc1ccc(C(=O)n2nc(C#N)c(C#N)c2N)cc1
→ 4, 2.1, 5727, 4, -12, -10, -11

Further structures
Every second line gives: Sa ugtP lethal, RN4220 kill, Bead autofluor, BJeLR lethal, Mtb hypoxia rep, Mtb hypoxia rep growth, PrP 5UTR inh
> NC(=O)N/N=C/c1c(O)ccc2oc3c(c12)CCCC3
→ /, /, 4223, -11, /, /, -23
> COc1ccccc1/C=N/Nc1nncc2ccccc12
→ /, /, 2066, -7, /, /, -36
> CCOC(=O)C1Nc2ccc(C(F)(F)F)cc2C2c3ccccc3CC12 (configuration not stated)
→ 14, 23, 3809, -4, 3, 1, 4
> c1ccc(Cn2c(SCc3cn4cccnc4n3)nnc2-c2ccco2)cc1
→ 1, 7.3, 2885, -1, 1, 5, 6
> Cc1ccc(Nc2nc(/N=C/NO)n[nH]2)cc1C
→ /, /, 3832, -3, /, /, -63
> CCOC(=O)C1CCN(S(=O)(=O)C(F)(F)c2nc3ccccc3s2)CC1
→ 33, 3.5, 9673, -5, 3, 5, -20
> Cc1ccc(S(=O)(=O)Oc2ccc(/C=N/NC(=O)c3nn(C)cc3Cl)cc2)cc1
→ /, /, 9121, -4, /, /, -2
> Cc1ccc(S(C)(=O)=NC(=O)NC(=O)c2c(F)cccc2Cl)cc1 (configuration not stated)
→ 3, 3.1, 5886, 2, -4, 9, -21
> COc1ccc(CCNC(=O)CCCc2nnc3n(C)c(=O)c4sccc4n23)cc1OC
→ 6, 1.0, 5908, -5, -13, -4, -11
> O=C(NCCC1=CCCCC1)c1ccc(Cl)c(S(=O)(=O)N2CCCCC2)c1
→ -6, -0.9, 4548, -3, -1, 1, -15
> CCOC(=O)Cn1cnc2c(C#N)c3n(c2c1=O)CCCCC3
→ 9, -0.4, 4820, 3, /, /, -20
> O=C(CCSCCc1ccccn1)Nc1c(F)c(F)c(F)c(F)c1F
→ 4, 0.7, 2481, -10, 8, 3, -26
> CCOC(=O)C1CCN(C(=O)CN(Cc2ccccc2)S(C)(=O)=O)CC1
→ 13, 4.7, 5697, -6, 18, 6, -23
> Cc1cc(C)c(NC(=O)COc2nncc3ccccc23)c(C)c1
→ -3, 7.9, 2091, 0, 0, -1, -6
> Cc1c(C#N)c(O)n(C)c(=O)c1N=Nc1ccc(S(N)(=O)=O)cc1
→ 2, 8.8, 3272, -8, 18, 4, -5
> COc1c(C)cc(Br)cc1C(=O)O
→ -4, -1.1, 22363*, 8, -5, 8, 1
> CC1(c2nnc(Cc3ccccc3)o2)CC(c2cccc([N+](=O)[O-])c2)=NO1 (configuration not stated)
→ 4, 4.3, 3048, -15, 11, 9, 6
> Cc1cc(NC(=O)CN2CCCCCCC2)no1
→ 1, 0.6, 7153, -3, 1, -1, 0
> Cc1nc2ccccc2n1CC(=O)NN=C/C=C/c1ccccc1
→ 7, 7.7, /, /, 6, 5, /
> Nc1sc2c([n+]1CCCS(=O)(=O)[O-])CCCC2
→ 8, 3.4, 2044, -1, 13, -1, -7
> O=C(OCC(=O)N1CCCC1=O)C1CCN(S(=O)(=O)c2c(Cl)cccc2Cl)CC1
→ 16, 4.4, 4166, -17, 2, -9, -21
> Cc1ccc(CNS(=O)(=O)NCc2ccccc2F)cc1
→ 7, 2.7, 1955, -3, 3, 7, -26
> COc1ccc(C2C(C(=O)C(C)(C)C)=C(O)C(=O)N2Cc2ccccc2)cc1 (configuration not stated)
→ -4, 22, 7613, 4, 0, 4, -7
> O=C(CN(C(=O)CCC(=O)Nc1nccs1)c1cccc(F)c1)NCC1CCCO1 (configuration not stated)
→ 6, -0.1, 2432, -1, /, /, -17
> CCCCOc1ccccc1C(=O)NCCCCCC(=O)O
→ 3, -0.2, 2769, -10, /, /, -18
> COc1ccc(C2NC(=O)N(C)C(C)=C2[N+](=O)[O-])cc1 (configuration not stated)
→ 10, 3.6, 2968, -4, 7, -1, -4
> CN(Cc1ccccc1)C1CC(=O)N(c2ccc(C(=O)O)cc2)C1=O (configuration not stated)
→ 5, 0.8, 11350, 1, 3, 9, -1
> Cc1ccccc1S(=O)(=O)Cc1ccc(C(=O)NCCCN2CCCC(C)C2)o1 (configuration not stated)
→ 0, 1.0, 5541, 9, -11, 3, -13
> Cc1ccccc1Cn1c(C)cc(C)c(C#N)c1=O
→ 6, 14, 4198, 1, -3, -2, -13
> CCOC(=O)c1ccc(C=NO)[n+](Cc2ccccc2)c1
→ 11, 4.6, /, /, 3, -1, /

The list goes on; the last 7 above are carried over.
Every second line gives: Sa ugtP lethal, RN4220 kill, Bead autofluor, BJeLR lethal, Mtb hypoxia rep, Mtb hypoxia rep growth, PrP 5UTR inh
> O=C(CN(C(=O)CCC(=O)Nc1nccs1)c1cccc(F)c1)NCC1CCCO1 (configuration not stated)
→ 6, -0.1, 2432, -1, /, /, -17
> CCCCOc1ccccc1C(=O)NCCCCCC(=O)O
→ 3, -0.2, 2769, -10, /, /, -18
> COc1ccc(C2NC(=O)N(C)C(C)=C2[N+](=O)[O-])cc1 (configuration not stated)
→ 10, 3.6, 2968, -4, 7, -1, -4
> CN(Cc1ccccc1)C1CC(=O)N(c2ccc(C(=O)O)cc2)C1=O (configuration not stated)
→ 5, 0.8, 11350, 1, 3, 9, -1
> Cc1ccccc1S(=O)(=O)Cc1ccc(C(=O)NCCCN2CCCC(C)C2)o1 (configuration not stated)
→ 0, 1.0, 5541, 9, -11, 3, -13
> Cc1ccccc1Cn1c(C)cc(C)c(C#N)c1=O
→ 6, 14, 4198, 1, -3, -2, -13
> CCOC(=O)c1ccc(C=NO)[n+](Cc2ccccc2)c1
→ 11, 4.6, /, /, 3, -1, /
> O=[N+]([O-])c1ccc(Cl)c(S(=O)(=O)NCC2CCCO2)c1 (configuration not stated)
→ 0, 7.0, 2346, 2, 6, 12, -7
> COc1ccc(C(=O)Nc2cnc3sc(C)nn3c2=O)cc1
→ 7, -2.5, 3173, -4, 9, 4, -5
> COCC(=O)Nc1ccc(N2CCN(c3ccccc3)CC2)c(F)c1
→ 9, 4.7, 3679, -4, 4, 9, -14
> CC(=O)N1c2ccc(S(=O)(=O)NCCC(=O)Nc3ccc(C)cn3)cc2CC1C (configuration not stated)
→ 6, 3.7, 4446, 0, -2, -6, -17
> Cc1cc(C(F)(F)F)nn1CC(=O)Nc1ccc2c(c1)OCO2
→ 0, 1.6, 5961, -9, 5, -5, -10
> CC(NC(=O)Cn1c(=O)oc2cc(S(=O)(=O)N3CCCC3)ccc21)c1ccccc1 (configuration not stated)
→ -15, 0.3, 5725, 12, -7, 0, -26
> CC(Sc1nnc(Cc2ccccc2)o1)C(=O)NC1(C#N)CCCCC1 (configuration not stated)
→ 11, 4.0, 3745, /, 6, 5, -31
> Cc1ccc(C=NNC(=O)c2ccco2)cc1
→ 8, -0.2, /, /, 3, -4, /

Screens as filed in PubChem.
